Source: PubChem (National Center for Advancing Translational Sciences (NCATS))
Cruzain noTriton: inhibitors of Trypanosoma cruzi cruzain without detergent | P25779 | Potency, µM, for the others: max response, negative = inhibition, usual class: inhibitors | 200,000 compounds, 2.3% hits | purified cruzain, Z-FR-AMC fluorescence, no detergent; active = well fitted curve in the direction sought with a large enough effect; inconclusive = small, poorly fitted or top-dose-only effect, or another doubt; inactive = no such curve, though single readings can be large; an effect the other way counts as inactive or inconclusive;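 also: plate controls were enzyme without inhibitor for no effect and buffer without enzyme for full effect; nearly all actives have a fitted effect of over 40% in size; top concentration of the series not given in the record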
Target sequence (P25779 123-467 limits assumed): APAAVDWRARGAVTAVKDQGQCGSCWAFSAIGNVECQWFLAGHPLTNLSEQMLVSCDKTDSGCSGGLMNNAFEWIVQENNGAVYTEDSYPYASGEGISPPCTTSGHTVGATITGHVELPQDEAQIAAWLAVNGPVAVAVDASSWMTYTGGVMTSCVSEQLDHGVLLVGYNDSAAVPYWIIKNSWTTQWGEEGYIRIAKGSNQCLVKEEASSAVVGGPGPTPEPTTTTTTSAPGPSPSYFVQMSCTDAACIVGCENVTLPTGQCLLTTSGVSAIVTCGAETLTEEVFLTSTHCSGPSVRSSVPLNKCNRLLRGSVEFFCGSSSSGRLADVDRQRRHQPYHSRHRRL
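Detergent-free condition (0.00005% Triton X-100) in acetate buffer pH 5.5 with DTT. 1.5 nM enzyme and compound were pre-mixed 15 min, then 2 uM Z-FR-AMC substrate added; reaction progress from fluorescence change between first and third reads (60 s).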
SARS PLP yeast: blocks SARS-CoV papain-like protease in a yeast assay | S. cerevisiae expressing SARS-CoV PLpro, growth rescue; control for the full effect not named in the record | Potency, µM (titrated, usually from 32.9 µM), inactives show at the top dose activity, positive = growth rescue | 330,000 compounds, 0.19% hits; also: 0% is about no effect; nearly all actives have a fitted effect of over 55% in size; growth read by luminescence after 48 h
Cruzain inh Det: cruzain (T. cruzi) inhibition with detergent. P25779. AID 1478. 200,000 compounds, 0.43% hits. purified cruzain, Z-FR-AMC fluorescence, 0.01% Triton. Potency, µM, for the others: max response, negative = inhibition, usual class: inhibitors; active = well fitted curve in the direction sought with a large enough effect; inconclusive = small, poorly fitted or top-dose-only effect, or another doubt; inactive = no such curve, though single readings can be large; an effect the other way counts as inactive or inconclusive;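 also: plate controls were neutral wells for no effect and buffer without enzyme for full effect; nearly all actives have a fitted effect of over 40% in size; top concentration of the series not given in the record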
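Read-out: AMC fluorescence (360 nm excitation, 450 nm emission), four reads over 2 min, first-to-third difference used. Conditions: cruzain 1.5 nM, Z-FR-AMC 2 uM, pH 5.5 acetate, 5 mM DTT, 0.01% Triton X-100.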
Marburg entry inh: inhibitors of Marburg virus binding or cell entry; Potency, µM (top dose mostly 37.8 µM), inactives show top-dose activity change, negative = inhibition, most hits filed as inhibitors; Marburg virus pseudotyped entry inhibition, cell reporter; control for the full effect not named in the record; about a third of the inactives were read at about 46 µM; 300,000 compounds, 1.8% hits; active = well fitted inhibition curve with a large enough effect; inconclusive = small, poorly fitted or top-dose-only effect, or effect the other way; inactive = flat fitted curve, though single readings scatter; tested in HEK293 cells; about a fifth of its hits are not listed in these tables; also: % is scaled to controls: 0 for no effect and ±100 for the full control effect; luciferase read-out
RE007 growth inh: less growth of the S. pombe RE007 Vpr strain; 360,000 compounds, 0.21% hits; S. pombe RE007 Vpr strain, BacTiter-Glo ATP luminescence, 24 h; control for the full effect not named in the record; Potency, µM (highest dose often 92.2 µM), without a hit: top-dose activity change, negative = less growth; active = well fitted falling curve with a large enough effect; inconclusive = small, poorly fitted or top-dose-only effect; inactive = no such curve, though single readings can be large or run the other way;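 also: % is scaled to controls: 0 for no effect and ±100 for the full control effect; nearly all actives have a fitted effect of over 50% in size; the assay follows cell death caused by Vpr and the record does not say whether a fall means rescue or toxicity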
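Fission yeast strain RE007, carrying one chromosomally integrated HIV-1 vpr copy, was seeded at OD 0.01 in PMG+AL medium with 23 nL pinned compound. After 24 h at 30 °C and 99% humidity, viability was read by BacTiter-Glo luminescence.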
2A StopGo: FMDV 2A StopGo reporter, luciferase signal | human cells with a luciferase reporter of 2A StopGo recoding; control for the full effect not named in the record | Potency, µM (titrated, usually from 57.9 µM), for the others: top-dose signal change, negative = less light | 410,000 compounds, 1.2% hits | AID 1159524; active = well fitted falling curve with a large enough effect; inconclusive = small, poorly fitted or top-dose-only effect; inactive = no such curve, though single readings can be large or run the other way; tested in HEK293T cells; also: % is scaled to controls: 0 for no effect and ±100 for the full control effect; nearly all actives have a fitted effect of over 45% in size; luciferase light after 4 h
Lassa entry inh: blocks Lassa virus binding to or entry into cells; Lassa virus pseudotype entry inhibition, cell reporter; control for the full effect not named in the record; Potency, µM (highest dose often 37.9 µM), for the others: at the highest dose activity change, negative = inhibition, hits mostly inhibitors; 300,000 compounds, 1.2% hits; AID 540256; active means well fitted inhibition curve with a large enough effect; inconclusive means small, poorly fitted or top-dose-only effect, or effect the other way; inactive means flat fitted curve, though single readings scatter; tested in HEK293 cells; also: % is scaled to controls: 0 for no effect and ±100 for the full control effect; nearly all actives have a fitted effect of over 50% in size; luciferase read-out
NS1 function inh: blocks influenza NS1 protein function; AID 2326; S. cerevisiae slowed by influenza A NS1, growth recovery by OD600; Potency, µM (highest dose often 46.1 µM), inactives show at the top dose activity, positive = more growth; 270,000 compounds, 0.4% hits; also: actives are rising curves; nearly all actives have a fitted effect of over 50% in size
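Growth recovery, yeast-based: influenza A NS1 expressed in S. cerevisiae causes slow growth, and suppressors are detected by OD600. The parent strain without NS1 is used as positive control.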
Starred values were filed as active, the others as inactive; ? = inconclusive; . = not tested or not shown; & = joins results of further samples; [ ] = dose if it differs, or a comment. Unless noted, calls follow the shape of the dose curve; as a rule, active means well fitted rising curve with a large enough effect; inconclusive means small, poorly fitted or top-dose-only effect; inactive means no such curve, though single readings can be large or run the other way. Potency is read from the fitted curve at half-maximal effect.

| Compound | Cruzain noTriton | SARS PLP yeast | Cruzain inh Det | Marburg entry inh | RE007 growth inh | 2A StopGo | Lassa entry inh | NS1 function inh |
| --- | --- | --- | --- | --- | --- | --- | --- | --- |
| COc1cc(/C=N/NC(=O)c2ccc3nc[nH]c3c2)ccc1O | . | 3% | . | ? | 6% | -5% | 2% | 3% |
| Cc1ccc2c(c1)C1(OCCCO1)C(=O)N2 | . | 0% | . | -15% | -4% | 7% | ? | -9% |
| CCOc1ccc(NC(=O)c2cccc(-n3cnnn3)c2)cc1 | 3% | 1% | 0.1% | 26% | 2% | -3% | 7% | -1% |
| COc1cc(NC(=O)c2cccc(Cl)c2)c(OC)cc1NC(=O)CN1CCOCC1 | ? | -4% | -4.8% | ? | 18% | -4% | ? | -19% |
| CC(Oc1ccc(Cl)cc1)C(=O)Nc1ccccc1N1CCOCC1 (stereo not drawn) | . | -9% | . | 13µM* | 3% | -18% | ? | . |
| COc1ccccc1NC(=O)/C(=C\c1cccnc1)NC(=O)c1ccccc1 | . | 15% | . | 0%[46.1 µM] | 20% | -3% | 3% | 18% |
| Cc1ccc(C)c(N2CCN(C(=O)Cc3ccc(-n4c(=O)[nH]c5ccsc5c4=O)cc3)CC2)c1 | 1% | 25% | -5.6% | ? | -18% | 0% | ? | . |
| O=C(O)c1sc2cccc(Cl)c2c1Cl | . | -1% | . | 21%[46.1 µM] | 22% | 1% | 1% | 1% |
| CCN(CC)S(=O)(=O)c1cccc(-c2nnc(SCC(=O)NC3CCCC3)n2N)c1 | 3% | 0% | 5.0% | -8% | 8% | 3% | -6% | 2% |
| CC(=O)c1ccc(NC(=O)CSc2n[nH]c(-c3cccnc3)n2)cc1 | . | -2% | . | ? | 2% | 4% | 3%[46.1 µM] | 16% |
| COc1ccc(-c2noc(CCC(=O)NC3CCCC3)n2)cc1 | . | 0% | . | 1%[46.1 µM] | -3% | -5% | -8%[46.1 µM] | -4% |
| CC(=O)c1cc(-c2ccccc2)n(CCC(=O)NCCc2ccccc2)c1C | -1% | . | -2.6% | . | . | -2% | ? | . |
| COc1ccc(Oc2coc3cc(OC(=O)/C=C/c4ccc(F)cc4)ccc3c2=O)cc1 | ? | 13% | -2.5% | 16% | -13% | 32%[activator] | 0% | 5% |
| O=C(c1ccc2c(c1)N(Cc1ccccc1)C(=O)c1ccccc1S2(=O)=O)N1CCOCC1 | 18% | . | 1.9% | -27%[46.1 µM] | . | 29% | 1%[46.1 µM] | . |
| Cn1nnnc1SCc1nnc(-c2ccccc2Br)o1 | -4% | -5% | -0.1% | ? | 13% | 37%[activator] | 10% | -9% |
| OCCC1CN(C2CCN(c3ccccc3)CC2)CCN1Cc1ccc(F)c(F)c1 (stereo not drawn) | . | 1% | . | . | -4% | -6% | . | -1% |
| CC(=O)CSc1nnc(Cc2ccc([N+](=O)[O-])cc2)o1 | -9% | 0% | 4.5% | ? | 10% | 11% | 3% | -1% |
| COc1cccc(NC(=O)CN(C)S(=O)(=O)c2ccc3[nH]c(=O)oc3c2)c1 | . | 2% | . | . | 4% | -10% | . | 10% |
| COc1ccc(NC(=O)CCNS(=O)(=O)c2ccccc2F)cc1S(N)(=O)=O | . | -2% | . | -9%[46.1 µM] | -9% | 12% | -3%[46.1 µM] | 11% |
| Cn1c(/C=C/c2cccc([N+](=O)[O-])c2)nc2ccccc2c1=O | . | -1% | . | . | 11% | -29% | . | -1% |

An excerpt of these results, field by field:
COc1cccc(NC(=O)CN(C)S(=O)(=O)c2ccc3[nH]c(=O)oc3c2)c1
  Cruzain noTriton = .
  SARS PLP yeast = 2%
  Cruzain inh Det = .
  Marburg entry inh = .
  RE007 growth inh = 4%
  2A StopGo = -10%
  Lassa entry inh = .
  NS1 function inh = 10%
COc1ccc(NC(=O)CCNS(=O)(=O)c2ccccc2F)cc1S(N)(=O)=O
  Cruzain noTriton = .
  SARS PLP yeast = -2%
  Cruzain inh Det = .
  Marburg entry inh = -9%[46.1 µM]
  RE007 growth inh = -9%
  2A StopGo = 12%
  Lassa entry inh = -3%[46.1 µM]
  NS1 function inh = 11%
Cn1c(/C=C/c2cccc([N+](=O)[O-])c2)nc2ccccc2c1=O
  Cruzain noTriton = .
  SARS PLP yeast = -1%
  Cruzain inh Det = .
  Marburg entry inh = .
  RE007 growth inh = 11%
  2A StopGo = -29%
  Lassa entry inh = .
  NS1 function inh = -1%

Further entries
Order of results: Cruzain noTriton	SARS PLP yeast	Cruzain inh Det	Marburg entry inh	RE007 growth inh	2A StopGo	Lassa entry inh	NS1 function inh
- Cc1cc(C(=O)N(CCC#N)Cc2cccs2)no1
 : .	0%	.	?	-16%	-7%	30%	6%
- CC1CCN(CCc2nc3cc(NS(=O)(=O)c4ccccc4)ccc3n2C)CC1
 : 7%	0%	3.2%	?	-15%	-20%	-3%	-6%
- COc1ccccc1NC(=O)CN1CCC(c2nc3ccc(C)cc3[nH]2)CC1
 : .	0%	.	?	-20%	3%	-9%[46.1 µM]	-4%
- CCOc1ccc(S(=O)(=O)Nc2cccc(C(=O)N(C)CC(=O)Nc3ccc(OC)cc3)c2)cc1
 : .	.	.	21%	-3%	31%[activator]	?	.
- COC(=O)c1ccc(NC(=S)N2CCN(C)CC2)cc1
 : .	4%	.	11%	3%	-7%	-3%	.
- CCN(CC)P(=O)(Nc1ccc(C)cc1Br)c1ccc(N(C)C)cc1NC(=O)c1ccco1 (stereo not drawn)
 : .	-7%	.	11µM*	-14%	-29%	.	.
- Cc1[nH]c2ccccc2c1C1(O)C(=O)N(Cc2ccc3c(c2)OCO3)c2ccccc21 (stereo not drawn)
 : 17%	-38%	-3.6%	-14%	13%	-8%	-13%	-194%
- COC(=O)/C(C#N)=C/c1c(N2CCN(c3ccc(OC)cc3)CC2)nc2c(C)cccn2c1=O
 : .	-3%	.	?	-19%	-10%	22%[46.1 µM]	0%
- Oc1cc(-c2ccccc2)c2ccccc2c1
 : -5%	-59%	-8.6%	3%[46.1 µM]	?	5%	0%	-19%
- C=CCNc1cnn(CC(C)=O)c(=O)c1Br
 : -2%	-8%	0.7%	6%[46.1 µM]	-2%	5%	2%	-1%
- CCC(=NCC1CCCO1)c1c(O)n(-c2ccc(Cl)cc2)c(=O)[nH]c1=O (stereo not drawn)
 : 9%	8%	-0.5%	2%	-10%	8%	?	-5%
- Cc1ccc(-n2cc(C(=O)c3ccc(N4CCN(C)CC4)cc3)nn2)cc1Cl
 : .	-1%	.	.	-5%	-11%	.	7%
- CCN(CC)c1ccc(C(=O)OCC(=O)N2CCCC2)cc1
 : .	0%	.	?	2%	41%[activator]	-15%[46.1 µM]	-9%
- CCC(CCc1ccccn1)C(=O)c1ccccc1 (stereo not drawn)
 : .	.	.	-6%	-1%	18%	?	.
- Cc1sc2nc(C3CC3)nc(NCCNS(=O)(=O)c3ccccc3)c2c1C
 : -7%	6%	-6.2%	?	7%	.	8%	-19%
- O=C(c1cccc2ccccc12)N1CCN=C1SCc1ccc([N+](=O)[O-])cc1
 : -27%	29%	-4.3%	20%	11%	?	4%	9%
- CCCN(CCC)C(=S)NC1CC2C=CC1C2 (stereo not drawn)
 : .	27%	.	.	4%	3%	.	-1%
- CCOc1cc(NC(=O)c2ccccn2)c(OCC)cc1NC(=O)c1ccccc1
 : .	0%	.	-12%[46.1 µM]	3%	-2%	?	2%
- O=C(NCC(=O)N(CC1CCCO1)C(C(=O)NC1CCCC1)c1cccnc1)c1ccco1 (stereo not drawn)
 : -7%	-1%	1.6%	2%&-14%	-7%	-18%	-1%	-6%
- Cc1ccc2c(CN3CCOCC3)cc(=O)oc2c1
 : .	2%	.	.	4%	6%	.	-2%
- CCOc1ccc(NC(=O)Cn2cc(C(=O)c3ccc(CC)cc3)c(=O)c3ccc(C)nc32)cc1
 : 2%	.	3.0%	.	.	-19%	4%[46.1 µM]	.
- CCCCC1=CC2=CC(=O)C(C)(OC(=O)CC)C(=O)C2=CN1CC(C)C (stereo not drawn)
 : .	0%	.	.	8%	-4%	.	-3%
- CN(C)C(CNC(=O)C1CCN(S(=O)(=O)c2cccc(Cl)c2Cl)CC1)c1ccccc1 (stereo not drawn)
 : .	4%	.	?	-13%	-6%	12%[46.1 µM]	3%
- NS(=O)(=O)c1ccc(NC2(C(=O)O)CCCC2)cc1
 : 12%	1%	2.5%	12%[46.1 µM]	5%	10%	6%[46.1 µM]	-4%&1%
- N#C/C(=C\c1ccc[nH]1)C(=O)Nc1ccccc1F
 : .	28%	.	?	-2%	19%	24%[46.1 µM]	-19%
- COc1ccc(C2=NS(=O)(=O)N(C)C(C(=O)Nc3ccc4c(c3)OCO4)=C2)cc1
 : .	6%	.	.	19%	?	.	-11%
- CCC(=O)NC(=S)Nc1cccc(Cl)c1N1CCCCC1
 : 3%	-1%	-11%	?	-14%	?	23%	16%
- Cc1ccc(-n2ccnc2SCC(=O)O)cc1C
 : .	1%	.	.	4%	-2%	.	6%
- COc1ccc2oc(=O)c(C(=O)N3CCN(c4ccccc4C)CC3)cc2c1
 : 3%	-1%	-9.5%	?	9%	82%[activator]	?	-23%
- CCOC(=O)C1(CC2CCCCO2)CCN(Cc2nc(C(C)C)cs2)CC1 (stereo not drawn)
 : .	-1%	.	?	14%	-18%	-29%[46.1 µM]	3%
- CCCc1ccc(OCCNC(=O)C2CCCCC2)cc1
 : .	-1%	.	?	58%	?	0%[46.1 µM]	-8%
